# Assay outcomes from PubChem BioAssay.
# HNF4A DNA FP = change in binding of human HNF4 alpha to DNA. HNF4a-FITC DNA binding, fluorescence polarization, 1 h. 360,000 tested, 0.3% active. P41235. activity change, % at 10 µM; in the data active means activity change above about 30%, passing the limit was not always enough;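 further: controls were the assay level and a saturating level of protein; the project sought stronger binding though the title names inhibitors; some compounds called inactive have numbers as strong as hits; positive values seem to mean higher polarization but the record does not say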
# Vif TR-FRET = inhibitors of Vif binding to APOBEC3G peptide, primary screen, biochemical, TR-FRET, GST-Vif 1-94, biotin-A3G peptide, dose response retest (AID 1117319). 260,000 tested, 0.57% active. TR-FRET GST-Vif / biotin-A3G peptide binding; higher % means a stronger effect; test concentration not given here; strong numbers were not always called active. inhibition, %; hits with a dose series show IC50 in µM;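 active means above the screen mean plus three standard deviations and confirmed in dose response; inconclusive means results disagree or hit not tested in dose response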;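 further: Vif residues 1-94 fused to GST binding biotinylated APOBEC3G peptide 110-148; 0% = full assay without inhibitor and 100% = GST in place of GST-Vif; retest series ran down from 100 µM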
# MLL AF4-AF9 inh = blocks AF4 peptide binding to human AF9; AlphaScreen, biotin-AF4 peptide binding to FLAG-AF9; inhibition, % at 10 µM; 350,000 tested, 0.47% active; P42568; AID 651704;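 active means every replicate reaching a set inhibition limit, whatever the replicate mean, cut at about 25% in these data; inconclusive means mean inhibition reaches that limit but some replicates miss it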;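 further: 0% = plate neutral control median and 100% = total signal loss; the record names both 10 and 1 µM as test concentration; the first replicate is given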
# Target sequence (P42568 whole entry, looked up): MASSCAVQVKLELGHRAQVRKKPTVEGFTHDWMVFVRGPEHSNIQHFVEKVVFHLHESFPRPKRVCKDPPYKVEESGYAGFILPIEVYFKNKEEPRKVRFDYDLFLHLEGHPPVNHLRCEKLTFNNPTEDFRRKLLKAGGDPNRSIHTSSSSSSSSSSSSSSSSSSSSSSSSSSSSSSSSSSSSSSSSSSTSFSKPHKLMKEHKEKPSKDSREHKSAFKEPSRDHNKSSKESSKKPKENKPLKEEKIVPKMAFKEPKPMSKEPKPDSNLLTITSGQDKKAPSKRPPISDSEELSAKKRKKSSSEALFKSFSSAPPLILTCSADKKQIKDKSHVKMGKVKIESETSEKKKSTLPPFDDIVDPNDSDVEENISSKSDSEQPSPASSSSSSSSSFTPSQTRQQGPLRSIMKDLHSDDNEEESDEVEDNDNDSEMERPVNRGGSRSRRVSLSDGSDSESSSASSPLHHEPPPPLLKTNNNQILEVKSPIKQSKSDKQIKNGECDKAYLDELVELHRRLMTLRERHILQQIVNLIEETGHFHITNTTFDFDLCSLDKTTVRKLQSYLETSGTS
# E coli growth = blocks Escherichia coli growth; OD600, 23 h; active compounds read low; OD600 absorbance (no concentration beside the values); 330,000 tested, 0.21% active; AID 1053175;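 active means OD600 absorbance below the run mean of sample wells minus 3.6 SD, in any replicate, cut at about 0.56 in these data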;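 further: stock transfer was 300 nL into about 60 µL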
# rRNA inh HTS = inhibits bacterial ribosomal RNA function over humanized ribosomes; E. coli WT GFP vs humanized-ribosome RFP mutants, fluorescence, 24 h; active compounds read low; DMSO median 0, no signal -100; GFP signal change (wild-type ribosome), % (no concentration beside the values); 350,000 tested, 1.6% active; AID 720706;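 active means significant combined selectivity score with lowered wild-type GFP, culture density cut under 30%, mutant RFP and density less affected; inactive means any of these conditions unmet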; further: one replicate is shown; some compounds called inactive have numbers as strong as hits
# ALR H2O2 inh = human ALR oxidase inhibition via reduced H2O2; P55789; purified ALR, DTT oxidation, H2O2 HRP-luminol luminescence; inhibition, % (concentration not given with the values); 290,000 tested, 3.8% active; AID 485317;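 active means mean and each replicate at 75% or more; inconclusive means only one of the two met; inactive means neither met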;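 further: stock transfer was 7.5 nL into about 7.5 µL; 0% = neutral wells and 100% = wells with inactivated enzyme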
# Target sequence (P55789 whole entry, looked up): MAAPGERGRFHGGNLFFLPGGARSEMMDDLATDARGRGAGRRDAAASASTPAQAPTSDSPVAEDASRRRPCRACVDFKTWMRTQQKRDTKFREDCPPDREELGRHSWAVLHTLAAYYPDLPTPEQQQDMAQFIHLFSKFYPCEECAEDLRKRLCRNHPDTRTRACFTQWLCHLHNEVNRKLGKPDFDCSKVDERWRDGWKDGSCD
# FGF22 binding = binders of recombinant human FGF22 by thermal shift. 340,000 tested, 1.5% active. SYPRO orange fluorescence; percent of sucrose octasulfate shift, DMSO zero. AID 651658. Q9HCT0. calls only at 9.99 µM;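 active means melting point raised past a set limit in the mean and every replicate; inconclusive means no clear call; three in four hits are not shown here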
# Target sequence (Q9HCT0 whole entry, looked up): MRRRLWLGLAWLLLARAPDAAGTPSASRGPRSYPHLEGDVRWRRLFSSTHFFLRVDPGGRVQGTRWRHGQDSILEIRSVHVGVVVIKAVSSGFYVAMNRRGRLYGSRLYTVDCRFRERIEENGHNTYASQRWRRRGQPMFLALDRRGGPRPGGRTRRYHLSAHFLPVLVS
# rRNA inh HTS OD600 = also measured in rRNA inh HTS; calls as there; OD600 change, %; measured here: OD600 growth;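 optical density of the mix in the first replicate; 0 = DMSO median and -100 = no signal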
# rRNA inh HTS RFP = also measured in rRNA inh HTS; calls as there; RFP signal change, %; measured here: RFP humanized mutant strains;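 first replicate; 0 = DMSO median and -100 = no signal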
# Active calls of the source: *; i = inactive; ? = inconclusive; nt = no result given; + = active, no number.
# Every second line gives: FGF22 binding	Vif TR-FRET	ALR H2O2 inh	rRNA inh HTS OD600	MLL AF4-AF9 inh	HNF4A DNA FP	E coli growth	rRNA inh HTS RFP	rRNA inh HTS
1. N#Cc1ccc(C(=O)Nc2cc(-c3ccccc3)nn2-c2ccccc2)cc1
  i	nt	nt	7	-0.4	-5.5	0.83	-3.4	-5
2. CCN1CCN(c2nc(N)c([N+](=O)[O-])c(Nc3ccc(C)cc3)n2)CC1
  nt	4%	-4	nt	nt	1.1	0.65	nt	nt
3. CC(C)CCNC(=O)CN(Cc1ccco1)C(=O)CCC(=O)Nc1nccs1
  i	nt	-3	nt	0.5	2.5	0.65	nt	nt
4. CN(C(=O)CSc1nc(-c2ccccc2)cs1)C1CCS(=O)(=O)C1 (centres undefined)
  nt	-10%	-12	1	nt	0.0	0.67	1.0	3
5. C#CCN1CC(COc2ccccc2)Oc2cccc(Oc3ccc(SC)c(C)c3)c2S1(=O)=O (centres undefined)
  i	nt	nt	-2	-2.5	nt	nt	3.4	-5
6. O=S(=O)(N[C@H]1CC[C@H](CCn2cc(C3CC3)nn2)O[C@H]1CO)c1ccc(Cl)cc1
  i	nt	nt	7	-1.0	nt	nt	-1.6	-3
7. Cc1n[nH]c(=S)n1/N=C/c1cccc(OCc2ccccc2)c1
  nt	nt	-12	-7	-1.5	2.5	nt	8.4	-10
8. CC(C)[C@H](NC(=O)c1ccco1)C(=O)OCC(=O)NC12CC3CC(CC(C3)C1)C2
  i	-1%	nt	4	-0.7	0.5	0.71	0.3	5
9. CCCCC(=O)Nc1ccccc1C(=O)OCC(=O)c1ccc2c(c1)OCCO2
  nt	-4%	-2	nt	nt	0.2	0.73	nt	nt
10. COc1ccc(NC(=O)Nc2ccc3c(c2)C(=O)N([C@@H](C)CO)C[C@@H](C)[C@H](CN(C)S(=O)(=O)c2cccs2)OCCCC[C@H](C)O3)cc1
  i	nt	nt	4	-0.2	nt	nt	-1.4	-6
11. Cc1cc2oc(=O)cc(CN(C)Cc3ccccc3)c2cc1Cl
  i	nt	nt	-30	-1.1	6.5	nt	-4.9	-3
12. O=C1CC(c2ccccc2)CC(O)=C1C=NCCN1CCN(Cc2ccccc2)CC1 (centres undefined)
  i	nt	-5	nt	0.6	-0.5	0.64	nt	nt
13. CC(C)NC(=O)Nc1ccc2c(c1)CC(=O)N([C@@H](C)CO)C[C@H](C)[C@@H](CN(C)Cc1ccccc1)O2
  i	nt	nt	1	-1.5	nt	nt	2.8	3
14. Cc1ccccc1CN(C)C[C@H]1OCc2cn(nn2)CCCC(=O)N([C@H](C)CO)C[C@H]1C
  i	nt	nt	3	-2.4	nt	nt	-1.9	-2
15. C[C@@H]1CN([C@@H](C)CO)C(=O)c2cc(NS(=O)(=O)c3cn(C)cn3)ccc2O[C@H]1CN(C)CC1CCCCC1
  i	nt	nt	5	-2.1	nt	nt	-1.1	2

# An excerpt from above in order of heavy-atom count, descending.
# Every second line gives: FGF22 binding	Vif TR-FRET	ALR H2O2 inh	rRNA inh HTS OD600	MLL AF4-AF9 inh	HNF4A DNA FP	E coli growth	rRNA inh HTS RFP	rRNA inh HTS
5. C#CCN1CC(COc2ccccc2)Oc2cccc(Oc3ccc(SC)c(C)c3)c2S1(=O)=O (centres undefined)
  i	nt	nt	-2	-2.5	nt	nt	3.4	-5
8. CC(C)[C@H](NC(=O)c1ccco1)C(=O)OCC(=O)NC12CC3CC(CC(C3)C1)C2
  i	-1%	nt	4	-0.7	0.5	0.71	0.3	5
7. Cc1n[nH]c(=S)n1/N=C/c1cccc(OCc2ccccc2)c1
  nt	nt	-12	-7	-1.5	2.5	nt	8.4	-10

# (continued)
# Every second line gives: FGF22 binding	Vif TR-FRET	ALR H2O2 inh	rRNA inh HTS OD600	MLL AF4-AF9 inh	HNF4A DNA FP	E coli growth	rRNA inh HTS RFP	rRNA inh HTS
16. C[C@@H](NC(=O)C[C@@H]1C=C[C@@H](NC(=O)C2CC2)[C@H](CO)O1)c1ccccc1
  i	nt	nt	-3	-0.9	nt	nt	-0.1	0
17. CNC(=O)c1oc(-c2ccc(Cl)cc2)nc1C
  i	-5%	nt	0	-0.9	2.9	0.68	-7.5	5
18. Cc1noc(C)c1NC(=O)Nc1ccc2c(c1)C(=O)N([C@H](C)CO)C[C@H](C)[C@H](CN(C)Cc1ccc(Cl)c(Cl)c1)OCCCC[C@@H](C)O2
  i	nt	nt	-6	1.5	nt	nt	0.4	0
19. C[C@@H]1CN([C@H](C)CO)C(=O)c2cc(NC(=O)C3CCCCC3)ccc2O[C@@H](C)CCCCO[C@@H]1CN(C)C(=O)CCC(F)(F)F
  i	nt	nt	-4	-4.3	nt	nt	0.8	1
20. CN(c1ccccc1)S(=O)(=O)c1cccc(C(=O)NC2CCCCC2)c1
  i	-1%	-3	-49	-0.7	1.6	0.65	-6.9	-33
21. COc1ccc2c3c(n(C)c2c1)[C@@H](CO)N(Cc1ccc2c(c1)OCO2)CC31CN(C(=O)c2ccc3c(c2)OCO3)C1
  i	nt	nt	-2	-1.2	nt	nt	-3.1	-3
22. O=C(Nc1cccnc1N1CCOCC1)c1cccs1
  i	nt	10	2	-3.7	1.9	0.7	0.9	6
23. COc1ccc(S(=O)(=O)Nc2ccc3c(c2)CC(=O)N([C@H](C)CO)C[C@@H](C)[C@H](CN(C)Cc2ccc(Cl)c(Cl)c2)O3)cc1
  i	nt	nt	3	-0.3	nt	nt	1.7	2
24. COc1ccc(-n2cc(-c3ccccc3)[nH]c2=S)c(OC)c1
  i	-1%	90*	1	-1.2	9.7	0.63	4.0	-4
25. Cc1ccc(-c2csc(NC(=S)NC(=O)/C=C/c3ccco3)n2)cc1
  nt	23%	-4	nt	nt	2.1	0.71	nt	nt
26. CCOC(=O)C1CCCN(C(c2ccccn2)c2c(C)[nH]c3ccccc23)C1 (centres undefined)
  i	-11%	53	5	15	5.5	nt	2.2	11
27. Cc1ccc(NC(=O)c2cccc(C(=O)OC(C)C)n2)c(Br)c1
  i	-2%	-7	14	-2.6	-7.2	0.69	4.5	5
28. CC(=O)N1CCc2cc(S(=O)(=O)CCC(=O)Nc3ccc4c(c3)OCCO4)ccc21
  nt	0%	-11	nt	nt	0.7	0.72	nt	nt
29. Cc1cc(=O)[nH]c2c1cnn2Cc1ccccc1
  nt	-1%	-12	nt	nt	-1.6	0.77	nt	nt
30. Cc1cccc(NC(=O)CSc2nc3ccccc3nc2N2CC(C)OC(C)C2)c1 (centres undefined)
  i	nt	-2	-1	0.6	1.2	0.8	-3.2	3
31. COc1cccc(C#Cc2cnc3c(c2)C(=O)N([C@H](C)CO)C[C@@H](C)[C@@H](CN(C)C)O3)c1
  i	nt	nt	-7	4.9	nt	nt	4.0	0
32. COc1ccc(-c2csc(Nc3ncccn3)n2)cc1C
  i	-12%	-1	6	2.3	3.1	0.7	-2.6	7
33. Cc1ccc(S(=O)(=O)Cc2ccc(C(=O)N3CCCC3)o2)cc1
  i	6%	-51	21	0.5	1.6	0.73	-0.4	7
34. CC(C)(C)NC(=O)C(Cc1ccccc1)NS(=O)(=O)c1ccc2c(c1)CCC(=O)N2 (centres undefined)
  nt	6%	98*	nt	nt	3.0	0.69	nt	nt
35. C[C@@H]1CN([C@@H](C)CO)C(=O)c2cc(C#CC3CC3)cnc2O[C@H]1CN(C)C(=O)c1ccccc1
  i	nt	nt	-3	1.7	nt	nt	-2.8	-1
36. Cc1ccc(CC(=O)Nc2ccccc2-c2ccccc2)cc1C
  nt	nt	0	nt	nt	-3.6	0.68	nt	nt
37. COc1ccccc1N1CCN(C(=O)C2CC=CCC2C(=O)O)CC1 (centres undefined)
  nt	1%	10	nt	nt	-1.2	0.73	nt	nt
38. C#CCSc1nc2[nH]ncc2c(=O)[nH]1
  nt	3%	-4	nt	nt	1.5	0.67	nt	nt
39. Oc1c(Cl)cc(CN2CCOCC2)c2cccnc12
  i	nt	32	-34	35*	5.8	0.52*	-7.4	-23
40. CCc1ccc(N(C(=O)c2snc(C(N)=O)c2N)C(C(=O)NCCC(C)C)c2c[nH]c3ccccc23)cc1 (centres undefined)
  nt	0%	-4	nt	nt	-1.4	0.72	nt	nt
41. O=C(Nc1nncs1)C(Sc1ccccc1)c1ccccc1 (centres undefined)
  nt	13%	-6	nt	nt	0.8	0.62	nt	nt
42. COc1ccc(C(=O)NC(C)Cc2cnccn2)cc1OC1CCN(C(C)C)CC1 (centres undefined)
  i	nt	0	9	-3.4	-4.0	0.7	-0.9	11
43. N#Cc1cccc(NC(=O)CN2C(=O)NC3(CCCCCC3)C2=O)c1
  i	nt	21	3	-4.5	-2.1	0.68	-1.8	6
44. CCOc1ccccc1NC(=O)C1COc2ccccc2O1 (centres undefined)
  i	nt	1	-31	-4.1	0.6	0.63	-1.7	-22
45. O=C(c1cccc(-n2cccc2)c1)N1CCN(S(=O)(=O)c2c(F)cccc2F)CC1
  i	1%	2	-5	5.6	-6.3	0.69	4.1	-11
46. CCOc1ccc(N(CC(=O)Nc2ccc(F)c(F)c2)S(=O)(=O)c2c(C)noc2C)cc1
  i	1%	-59	12	-3.7	2.9	0.67	1.4	5
47. COC(=O)c1nn(-c2ccc(OC)cc2)c(=O)cc1Oc1ccccc1
  nt	7%	-20	nt	nt	2.0	0.69	nt	nt
48. CCOc1cc(C2NC(=O)NC(C)=C2C(=O)OCc2ccccc2)ccc1O (centres undefined)
  i	0%	54	-3	4.5	1.3	0.66	6.4	-9
49. CCn1ccnc1CN(C)C(=O)C1CCC(=O)N(Cc2cccc(F)c2)C1 (centres undefined)
  i	nt	1	5	-1.1	4.4	0.59	-1.4	2
50. C=CCc1ccccc1OCCSc1nc2ccc([N+](=O)[O-])cc2s1
  nt	20%	-19	nt	nt	3.6	0.7	nt	nt
51. CCn1ncc(C2=NOC(C(=O)NCCc3ccccc3)C2)c1C (centres undefined)
  nt	3%	-4	nt	nt	3.4	0.72	nt	nt
52. COc1ccc(-n2cc(-c3ccccc3)c3c(NN4CCOCC4)ncnc32)cc1
  nt	-2%	2	-65	7.3	1.2	0.66	-2.7	-36
53. COc1cccc(C(=O)Nc2ccc3c(c2)C(=O)N(C)[C@@H]2CC[C@@H](CC(=O)NCC4CC4)O[C@H]2CO3)c1
  i	nt	nt	0	-0.2	nt	nt	-0.7	-1
54. CCOC(=O)C1(CCCc2ccccc2)CCN(Cc2ccn[nH]2)CC1
  i	3%	-8	-10	2.6	2.0	0.69	-1.2	-1
55. Cc1ccc(-c2csc(NC(=O)c3cccc(N4C(=O)CCC4=O)c3)n2)o1
  nt	-6%	38	nt	nt	-2.1	0.72	nt	nt
56. O=C(NCC(c1ccco1)N1CCN(c2ccccc2F)CC1)C(=O)NC1CCCC1 (centres undefined)
  i	-5%	-4	4	-0.1	0.1	0.7	-2.3	3
57. Nc1n[nH]c(=S)n1/N=C1/C(=O)Nc2ccccc21
  +	?	nt	12	-8.6	2.5	nt	-1.2	5
58. CO[C@@H]1CN(C)C(=O)c2cc(NC(=O)C3CC3)ccc2OC[C@H](C)N(C(=O)NC(C)C)C[C@@H]1C
  i	nt	nt	3	-1.8	nt	nt	-0.1	0
59. O=C(NC(=S)Nc1ccc(O)cc1)C1CCCC1
  i	0%	nt	-6	0.4	-1.3	0.69	-0.2	3
60. Cc1ccc2[nH]c3c(c2c1)CN(C(=O)CN1CC(C)OC(C)C1)CC3 (centres undefined)
  nt	-2%	-21	nt	nt	0.2	0.78	nt	nt
61. C=CCN1C(=O)c2ccc(C(=O)N3CCC(C(N)=O)CC3)cc2C1=O
  i	6%	2	1	-1.1	-0.1	0.66	0.9	9
62. CCOC(=O)C1CCCN(C(=O)c2cc(Cl)ccc2Cl)C1 (centres undefined)
  nt	5%	-3	nt	nt	-0.6	0.68	nt	nt

# The list is partial. The share of hits here may be higher or lower than overall.
